From PubChem BioAssay
SmPrx2 inh – inhibitors of Schistosoma mansoni peroxiredoxin 2. AID 448. S. mansoni Prx2 activity coupled to TGR/GSH (TGR is thioredoxin glutathione reductase), NADPH fluorescence loss, qHTS; some inactives read as strong as hits. Potency, µM. 65,000 compounds, 0.07% hits; active means full or partial inhibition curve with a strong effect at the top dose; inconclusive means weaker partial or single-point curve; inactive means no accepted curve; also: series up to 57 µM; many of its hits are not listed in these tables
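Enzyme mix: 100 uM NADPH, 25 nM TGR, 700 uM GSH, 50 nM Prx2 in 100 mM phosphate pH 7.4, 10 mM EDTA, 0.01% Tween-20. 15 min RT with compound; NADPH/GSH added, H2O2 starts reaction; NADPH fluorescence read 8 min.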
Anthrax LT inh – anthrax lethal toxin internalization inhibition; Cells, anthrax lethal toxin internalization, FRET ratio (460/530); 70,000 compounds, 0.67% hits; Potency, µM (top dose mostly 40 µM), inactives show at the top dose activity change, negative = inhibition, actives largely listed as inhibitors; active = well fitted falling ratio curve with the 530 nm signal flat; inconclusive = other ratio curves, or a change in one channel alone; inactive = flat curves in the ratio and both channels; the % refers to the ratio; also: % is scaled to controls: 0 for no effect and ±100 for the full control effect; nearly all actives have a fitted effect of over 50% in size; tested in ME-180 cells; beta-lactamase reporter
Numbers without * were called inactive; & = joins results of further samples; [ ] = dose if it differs, or a comment. Potency is read from the fitted curve at half-maximal effect. Some of the compounds tested; the hit share may differ from the screen's.

What do the screens show for `CCOC(=O)c1ccc(NC(=O)CSc2nc3c(c(=O)n2C)SC(C)C3)cc1` (stereo not given)?
SmPrx2 inh: >57; Anthrax LT inh: inconclusive

How did CC(C)NC(=O)c1ccccc1-c1nc(-c2ccccc2Cl)no1 do in these assays?
SmPrx2 inh: >57

How did Cc1cc(C)c2nc3c(c([C@H](O)[C@@H]4CCCCN4)c2c1)CC/C3=C/c1ccc(Cl)cc1 do in these assays?
SmPrx2 inh: >57; Anthrax LT inh: -12.7%[8 µM]

What do the screens show for `O=C(O)Cc1ccc(OCCNC[C@H](O)c2ccccc2)cc1`?
Anthrax LT inh: -15.0%

How did CCOC(=O)N1CCC(NC(=O)C(NC(=O)C2CCCCC2)C(C)C)CC1 (stereo not given) do in these assays?
SmPrx2 inh: >57; Anthrax LT inh: 0.0%

How did CCCCc1nc2ccccc2c(NC(=O)CN2CCN(C)CC2)c1CCC do in these assays?
SmPrx2 inh: >57; Anthrax LT inh: 13.5%

How did CC(=O)N(CN1C(=O)c2ccccc2C1=O)c1ccccc1 do in these assays?
SmPrx2 inh: >57; Anthrax LT inh: 4.1%

How did O=C(O)c1cscn1 do in these assays?
SmPrx2 inh: >57; Anthrax LT inh: 8.0%

What do the screens show for `O=C(CNS(=O)(=O)c1ccc(Br)s1)NCC1COc2ccccc2O1` (stereo not given)?
SmPrx2 inh: >57; Anthrax LT inh: -13.3%

What do the screens show for `N#CCCn1nc(-c2ccccc2)cc1-n1c(C(F)(F)F)nc2ccccc21`?
SmPrx2 inh: >57; Anthrax LT inh: -10.6%

Results for FC(F)(F)c1nc2nncn2c2c1CCCCC2 ?
SmPrx2 inh: >57; Anthrax LT inh: -1.5%

What do the screens show for `COc1ccc(OC)c2sc(N3CCCCC3)nc12`?
SmPrx2 inh: >57; Anthrax LT inh: -2.5%

How did c1ccc(-c2nc(-n3ccnc3)nc(-n3ccnc3)n2)cc1 do in these assays?
SmPrx2 inh: >57; Anthrax LT inh: 12.2%

Results for COc1cccc(-c2nn(C)c3sc(C(=O)N4CCN(c5ccccn5)CC4)cc23)c1 ?
SmPrx2 inh: >57; Anthrax LT inh: 10µM*

Results for CCOc1ccc(Nc2nc(Cc3nnc(SCC(=O)NCC4CCCO4)n3C)cs2)cc1 (stereo not given) ?
SmPrx2 inh: >57; Anthrax LT inh: 6.2%

What do the screens show for `CC(C)=C1C2CCC1C(C(=O)NCc1ccccc1)C2C(=O)O` (stereo not given)?
SmPrx2 inh: >57; Anthrax LT inh: -20.2%

What do the screens show for `COc1ccc(-c2nc(C#N)c(NCCCN3CCOCC3)o2)cc1`?
Anthrax LT inh: 11.2%

What do the screens show for `COCCn1c(-c2ccc(Cl)cc2)cnc1SCC(=O)NCc1cccs1`?
Anthrax LT inh: -17.8%

Results for C=CCNC(=O)CCCC(=O)NCC=C ?
SmPrx2 inh: >57; Anthrax LT inh: -18.9%

What do the screens show for `CCCC(=O)Nc1nc2ccc3nc(C)sc3c2s1`?
SmPrx2 inh: >57; Anthrax LT inh: -4.1%

Among those listed so far, two contain a CF3 group:
What do the screens show for `N#CCCn1nc(-c2ccccc2)cc1-n1c(C(F)(F)F)nc2ccccc21`?
SmPrx2 inh: >57; Anthrax LT inh: -10.6%

Results for FC(F)(F)c1nc2nncn2c2c1CCCCC2 ?
SmPrx2 inh: >57; Anthrax LT inh: -1.5%

Going on with the list.
Results for COc1cccc(-c2nc(NC3CC3)c3ccccc3n2)c1 ?
SmPrx2 inh: >57; Anthrax LT inh: inconclusive

Results for COc1ccc(OC)c(NC(=O)CNC(=O)Cn2cnc3ccccc3c2=O)c1 ?
SmPrx2 inh: >57; Anthrax LT inh: 17.1%

How did C1=CC2c3ccccc3NC(c3ccncc3)C2C1 (stereo not given) do in these assays?
SmPrx2 inh: >57; Anthrax LT inh: inconclusive

What do the screens show for `CCOc1ccc(NC(=O)CN2CCC(NC(=O)C3CCCCC3)CC2)cc1`?
SmPrx2 inh: >57; Anthrax LT inh: 6.0%

Results for COC(=O)N1CCC[C@@]2(CCN(c3ncccn3)C2)C1 ?
SmPrx2 inh: >57; Anthrax LT inh: 3.6%

Results for O=C(O)[C@@H]1Cc2c([nH]c3ccccc23)[C@@H](CCCCO)N1 ?
SmPrx2 inh: >57; Anthrax LT inh: -6.4%[8 µM]

How did CCCCn1c(NC(=O)c2ccccc2)nc2ccccc21 do in these assays?
Anthrax LT inh: inconclusive

Results for O=C1CSC(=S)N1Cc1cccnc1 ?
Anthrax LT inh: -7.5%

Results for O=C(CN1C(=O)CCC1=O)Nc1ccc2c3c(cccc13)CC2 ?
SmPrx2 inh: >57; Anthrax LT inh: 6.2%

Results for Cc1ccc(OC(=O)CCC(=O)Nc2ccc(S(=O)(=O)Nc3cc(C)on3)cc2)cc1 ?
Anthrax LT inh: -9.9%

What do the screens show for `CCN(CC)CCCC(C)n1c(-c2ccccc2)nc2c(N3CCOCC3)nc(C)nc21` (stereo not given)?
Anthrax LT inh: 17.6%

What do the screens show for `COc1ccc(NC(=O)C2CCN(S(=O)(=O)c3cccc4cccnc34)CC2)cc1OC`?
SmPrx2 inh: >57; Anthrax LT inh: -4.2%

What do the screens show for `CC(=O)Nc1nc(C=C(Cl)Cl)cs1`?
SmPrx2 inh: >57; Anthrax LT inh: -20.7%

How did O=c1[nH]c(=O)n(Cc2ccco2)c(O)c1C=NCc1cccs1 do in these assays?
SmPrx2 inh: >57; Anthrax LT inh: 6.5%

How did COc1ccc(-c2csc(N(CC3CCCO3)C(=O)c3ccco3)n2)cc1 (stereo not given) do in these assays?
SmPrx2 inh: >57; Anthrax LT inh: inconclusive

Results for CCCCn1c(C)c(C(=O)OCC)c2c(CN3CCOCC3)c(O)ccc21 ?
Anthrax LT inh: 13.1%

What do the screens show for `CCOC(=O)C1=C(C)OC(N)=C(C(=O)OCC)C1c1cccnc1` (stereo not given)?
SmPrx2 inh: >57; Anthrax LT inh: 16.4%

Results for Cc1cccc2nc(CSCc3ccco3)cn12 ?
SmPrx2 inh: >57; Anthrax LT inh: -7.1%

What do the screens show for `CC(=O)c1c(C)[nH]c(C(=O)NC2CCCCC2)c1C`?
SmPrx2 inh: >57; Anthrax LT inh: 6.0%

Results for FC(F)(F)c1cc(CN2CC[C@@]3(CCCNC3)C2)cc(C(F)(F)F)c1 ?
SmPrx2 inh: >57; Anthrax LT inh: -11.1%

What do the screens show for `O=C(O)CC1(c2ccccc2)C(=O)c2ccccc2C1=O`?
SmPrx2 inh: >57; Anthrax LT inh: 6.0%

What do the screens show for `CCN(CC)CCCNC(=O)C1CCC(=O)N(c2ccc(OC)cc2)C1c1ccc(F)cc1` (stereo not given)?
SmPrx2 inh: >57; Anthrax LT inh: 11.6%

Results for Cc1ccccc1-c1nc(CS(=O)CC(=O)NCCN2CCN(Cc3ccccc3)CC2)c(C)o1 (stereo not given) ?
SmPrx2 inh: >57; Anthrax LT inh: -4.3%

How did Cc1ccccc1NC(=O)NCCN1C(=O)C2C3C=CC(C3)C2C1=O (stereo not given) do in these assays?
SmPrx2 inh: >57; Anthrax LT inh: -13.1%

Results for Cc1cc(N2CCC(C(=O)N3CCN(c4cccc(C)c4C)CC3)CC2)n2ncnc2n1 ?
SmPrx2 inh: >57; Anthrax LT inh: inconclusive

How did Cc1cc(NC(=O)Cn2c(=O)c3c(ncn3CC(C)C)n(Cc3ccccc3)c2=O)no1 do in these assays?
SmPrx2 inh: >57; Anthrax LT inh: 6.6%

Results for Cc1ccc(OCC(=O)NCc2ccccn2)c(Br)c1 ?
Anthrax LT inh: -14.3%

Results for Cc1ccn2cc(CNS(=O)(=O)c3ccc4c(c3)OCCO4)nc2c1 ?
SmPrx2 inh: >57; Anthrax LT inh: 8.4%

What do the screens show for `COc1cc(S(=O)(=O)N2CCN(c3ccccc3F)CC2)c(OC)cc1Cl`?
SmPrx2 inh: >57; Anthrax LT inh: 5.7%

What do the screens show for `C=CCn1c(SCc2nc(N)nc(N3CCCCC3)n2)nnc1-c1ccco1`?
SmPrx2 inh: >57; Anthrax LT inh: -3.2%

Results for Cc1noc(C)c1C(=O)N1CCC2(CCCN(Cc3ccccc3)C2)CC1 ?
SmPrx2 inh: >57; Anthrax LT inh: -14.8%

How did CCC(=O)Oc1ccc(C/C(=N\O)c2ccc(O)cc2O)o1 do in these assays?
SmPrx2 inh: >57; Anthrax LT inh: inconclusive

How did CC(Sc1nnnn1C)C(=O)Nc1ccc(N2CCOCC2)cc1 (stereo not given) do in these assays?
SmPrx2 inh: >57; Anthrax LT inh: 4.0%

What do the screens show for `O=C1c2ccccc2C(Nc2ccc3c(c2)OCCO3)N1Cc1ccco1` (stereo not given)?
SmPrx2 inh: >57; Anthrax LT inh: 7.7%

Results for Nc1nc(-c2ccco2)cs1 ?
SmPrx2 inh: >57; Anthrax LT inh: -6.7%

How did COC(=O)NC1(C(F)(F)F)C(=O)NC(C)=C1C(=O)OC (stereo not given) do in these assays?
SmPrx2 inh: >57; Anthrax LT inh: 8.6%

What do the screens show for `CC1CC(NC(=O)CCn2c(=O)oc3ccccc32)CC(C)(C)C1` (stereo not given)?
SmPrx2 inh: >57; Anthrax LT inh: -6.1%

Results for COc1ccc(-c2nn(C)c(=O)c3ccccc23)cc1CNC(=O)c1ccco1 ?
SmPrx2 inh: >57; Anthrax LT inh: inconclusive

Results for CN(C)c1nc(Oc2ccc(=O)[nH]n2)nc(N2CCCCC2)n1 ?
SmPrx2 inh: >57; Anthrax LT inh: 11.8%

How did Cc1ccc(S(=O)(=O)NCCN2CCOCC2)cc1C do in these assays?
SmPrx2 inh: >57; Anthrax LT inh: -7.1%

Two entries drawn at random from the list so far:
Results for Cc1ccc(OCC(=O)NCc2ccccn2)c(Br)c1 ?
Anthrax LT inh: -14.3%

Results for FC(F)(F)c1nc2nncn2c2c1CCCCC2 ?
SmPrx2 inh: >57; Anthrax LT inh: -1.5%

Next section
What do the screens show for `Cc1ccc(C2SCC(=O)N2Cc2cn3ccsc3n2)o1` (stereo not given)?
SmPrx2 inh: >57; Anthrax LT inh: -20.9%

How did COC(=O)C1=C(C)C(c2cccs2)NC(=O)N1C (stereo not given) do in these assays?
SmPrx2 inh: >57; Anthrax LT inh: 7.9%

Results for Cc1occc1C(=O)N1CCN(C(c2ccccc2)c2ccccc2)CC1 ?
SmPrx2 inh: >57; Anthrax LT inh: -8.8%

How did COc1ccc(OC)c(N2Cc3cc(C)c(C)cc3C2)c1 do in these assays?
SmPrx2 inh: >57; Anthrax LT inh: inconclusive

How did Cc1c(C(=O)N2CCN(c3ccc(C(F)(F)F)cn3)CC2)oc2ccccc12 do in these assays?
SmPrx2 inh: >57; Anthrax LT inh: -21.6%

What do the screens show for `O=S(=O)(c1ccccc1)N1CCC2(CC1)CN(Cc1nccs1)C2`?
SmPrx2 inh: >57; Anthrax LT inh: inconclusive

Results for O=C(NCc1ccccc1)c1ccc2c(c1)OCCO2 ?
SmPrx2 inh: >57; Anthrax LT inh: 2.2%

Results for COCCCNC(=O)c1ccc(NS(C)(=O)=O)cc1 ?
SmPrx2 inh: >57; Anthrax LT inh: 2.9%

Results for CCOC(=O)[C@@]12C[C@@H]1/C(=N/O)c1ccccc1O2 ?
SmPrx2 inh: >57&>57; Anthrax LT inh: inconclusive

What do the screens show for `Cc1cnc(C(=O)Nc2ccccc2C(=O)N2CCOCC2)cn1`?
SmPrx2 inh: >57; Anthrax LT inh: 1.3%

How did O=C(NCC1CCCO1)c1ccc(NC(=O)C2CC=CCC2C(=O)O)cc1 (stereo not given) do in these assays?
SmPrx2 inh: >57; Anthrax LT inh: -4.2%

What do the screens show for `Cc1ccc(SCc2cn3c(C)csc3n2)cc1`?
SmPrx2 inh: >57; Anthrax LT inh: -17.1%

How did NC(=O)c1ccc(-c2ncc(-c3ccccc3)o2)cc1 do in these assays?
SmPrx2 inh: >57; Anthrax LT inh: inconclusive

How did O=C(O)CC(Cc1ccccc1)c1ccc2c(c1)OCO2 (stereo not given) do in these assays?
SmPrx2 inh: >57; Anthrax LT inh: 3.2%

How did NC(=O)c1c(NC(=O)C2CCCO2)sc2c1CCC2 (stereo not given) do in these assays?
SmPrx2 inh: >57; Anthrax LT inh: 11.7%

What do the screens show for `CC(=O)c1cc(-c2ccccc2)[nH]c1N1CCOCC1`?
SmPrx2 inh: >57; Anthrax LT inh: inconclusive

What do the screens show for `CCCOc1ccc(/C(O)=C2/C(=O)C(=O)N(CCCOC)C2c2cccnc2)cc1` (stereo not given)?
SmPrx2 inh: >57; Anthrax LT inh: -10.1%

How did CC(C(=O)NCCCN1CCOCC1)n1cccc1C(=O)c1ccccc1 (stereo not given) do in these assays?
SmPrx2 inh: >57; Anthrax LT inh: -5.4%

Results for CCN(CC)c1ncnc2c1cnn2C ?
SmPrx2 inh: >57; Anthrax LT inh: -7.7%

What do the screens show for `Cc1csc(NC(=O)CCn2c(=O)sc3ccccc32)n1`?
SmPrx2 inh: >57; Anthrax LT inh: 4.7%

Sorted by molar mass (high to low): some entries from above
Results for COCCCNC(=O)c1ccc(NS(C)(=O)=O)cc1 ?
SmPrx2 inh: >57; Anthrax LT inh: 2.9%

How did NC(=O)c1ccc(-c2ncc(-c3ccccc3)o2)cc1 do in these assays?
SmPrx2 inh: >57; Anthrax LT inh: inconclusive

Results for CCOC(=O)[C@@]12C[C@@H]1/C(=N/O)c1ccccc1O2 ?
SmPrx2 inh: >57&>57; Anthrax LT inh: inconclusive
